Tgondii IFNg: blocks Toxoplasma gondii growth in the presence of IFN-gamma | Toxoplasma gondii growth in IFN-gamma-treated host cells; active compounds read low; reference of the scale not given here | AID 1259416 | activity change, negative = inhibition, %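 (about 20 µM by stock and volumes)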 | hit rate 3.8% among 69,000;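 active = below -70%; inconclusive = fit judged invalid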;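 also: host cells are HeLa cells infected with Toxoplasma gondii; parasite growth read as luciferase light; one replicate is shown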
Active calls of the source: *; i = inactive; ? = inconclusive; & = joins results of further samples. Some of the compounds tested, so the mix of outcomes need not match the whole.

SMILES | Tgondii IFNg
CC(=O)Nc1ccsc1C(=O)N1CCC(Cc2cccc(C(N)=O)c2)C1 (stereo not given) | 8
Cc1nc(C#Cc2ccnc(Cl)c2)c(C)n1-c1ccc(OC(F)(F)F)cc1 | -52
Cc1c(C(=O)N2CCCC(c3ccn[nH]3)C2)nnn1Cc1ccccc1 (stereo not given) | 1
O=S(=O)(c1ccc(Cl)s1)N1CCC2(CC1)Nc1cc(F)ccc1-n1cccc12 | -11
CCNC(=O)c1ccc(N2CC[C@@](C)(O)[C@@H](Cc3ccccc3)C2)nc1 | -10
O=C(Nc1ccc(Cl)cc1)Oc1ccccc1N1CCSCC1 | -35
O=C(NCCC1=CCCCC1)c1nc(Nc2ccccc2)c2ccccc2n1 | -76*
C[C@@H]1CCCCO[C@@H](CN(C)C(=O)Nc2ccc3c(c2)OCO3)[C@@H](C)CN([C@H](C)CO)C(=O)c2cc(NS(=O)(=O)c3ccc(F)cc3)ccc2O1 | 232
CCCc1cc(C(=O)N2CCc3cc(OC)c(OC)cc3C2)n[nH]1 | 5
Cc1ccc2nc(CCNC(=O)[C@@]34CC[C@@](C)(OC3=O)C4(C)C)[nH]c2c1 | -11
COc1ccc(S(=O)(=O)Nc2ccc3c(c2)OC[C@@H](C)NC[C@H](C)[C@H](OC)CN(C)C3=O)cc1 | 18
C[C@H]1CN([C@@H](C)CO)C(=O)c2cc(NS(=O)(=O)c3cccs3)ccc2O[C@H]1CN(C)S(=O)(=O)c1ccc(Cl)cc1 | -4
COC(=O)[C@@H]1CCCN1Cc1cnc2c(-c3ccccc3)cnn2c1 | 5
C[C@@H]1CN([C@@H](C)CO)C(=O)c2cc(NS(=O)(=O)c3ccc(F)cc3)ccc2O[C@@H](C)CCCCO[C@@H]1CN(C)C(=O)Nc1ccc2c(c1)OCO2 | 246
Cn1c(=O)n(C)c2cc(CCC(=O)NC3=NS(=O)(=O)c4ccccc43)ccc21 | 17
CCc1nc(OCC(=O)NCc2ccc3c(c2)OCO3)c2ccccc2n1 | 10
COc1ccc(NC(=O)N2CCC(c3nc(C(=O)N4CCCC4)c(C)o3)CC2)c(C)c1 | 77
NC(=O)c1cc(S(=O)(=O)NCc2ccccc2)cs1 | -42
O=C(CN1CCC(Cc2ccccc2)CC1)Nc1cccc(-c2ncn[nH]2)c1 | -63
CCC(O)c1ccc(-c2ccccc2F)cc1 (stereo not given) | 12
O=C(Nc1ccccc1)OCCSc1nc2ccccc2s1 | -29
CCCN(C)C[C@H]1OCc2ccccc2-c2ccccc2C(=O)N([C@@H](C)CO)C[C@H]1C | 66
CCc1c(C)noc1-c1cnc(N(CC)CC)nc1-c1cnc(C)cn1 | -4
O=C(Nc1ccc2nc[nH]c2c1)c1ccc(=O)n(CC(=O)N2CCc3ccccc32)c1 | -3
COc1ccc2c3c([nH]c2c1)[C@H](CO)N(C(=O)Nc1ccc(F)cc1)CC31CN(Cc2cc(F)ccc2F)C1 | 498
CSc1ccc(C2c3[nH]c4ccccc4c3CCN2C(=O)c2ccc(C)cc2)cc1 (stereo not given) | 34
CO[C@H]1CN(C)C(=O)c2ccc(NC(=O)C3CC3)cc2OC[C@@H](C)N(C(C)=O)C[C@H]1C | 46
O=C(Cn1ncc2c(N3CCCCCC3)ncnc21)NCc1cccc(C(F)(F)F)c1 | 37
COc1cccc(C(=O)N2CCC(C(=O)NCCc3csc(C)n3)CC2)c1 | -1
Cc1nc(CN(C)C(=O)c2cc(C)sc2NC(=O)C(C)(C)C)no1 | -6
NC(=O)C1(N2CCOCC2)CCN(CC(=O)N2CCN(c3ccccn3)CC2)CC1 | 3
CC1CCN(c2ccc(C(C)NC(=O)CCc3nnc(C(C)C)o3)cc2)CC1 (stereo not given) | -12
c1coc(-c2nnc3n2C2(CCCC2)Cc2ccccc2-3)c1 | 40
CCCNC(=O)[C@H]1[C@H](CO)[C@H]2Cn3c(ccc(C4=CCCCC4)c3=O)[C@H]2N1Cc1ccccc1F | -61
Cc1ccc(C(C(=O)NC2CCCCC2)N(C(=O)c2ccccn2)c2ccccc2)cc1 (stereo not given) | 15
COCCO[C@H]1CCN(c2ccc(C)nn2)[C@H]1Cc1cnn(C)c1 | 4
CN1C2(CCN(C(=O)c3ccncc3)C2)c2ccccc2S1(=O)=O (stereo not given) | -11
CCOc1cc(C(=O)NC(=S)NCc2cccnc2)cc(OCC)c1OCC | -2
Cc1ccc(CN2CCCn3nc(C(=O)N4CCC(N5CCCCC5)CC4)cc3C2=O)cc1 | 18
COc1ccccc1CC(=O)Nc1ccc(-c2nc(Cn3cccn3)c(C)o2)cc1 | 2
O=C(NC1CCCC1)N[C@H]1C=C[C@H](CC(=O)N2CCOCC2)O[C@H]1CO | -16
Cc1ccc(C)c(OC(C)C(=O)NCCCc2nn[nH]n2)c1 (stereo not given) | -7
O=C1NCCCC1c1n[nH]c(=S)n1Cc1ccccc1 (stereo not given) | -56
CCOc1ccc(NC(=O)Cn2c(=O)cc(-c3nc(C(C)C)no3)c3ccccc32)cc1 | 115
CCCc1cc(Br)c(-n2cccc2)c(Br)c1 | ?
CCS(=O)(=O)N1CCN(C(=O)CC2C(=O)NCCN2Cc2ccccc2)CC1 (stereo not given) | 12
O=C(CSc1nc2c(c(=O)[nH]1)CSC2)c1ccc(Cl)cc1 | 4
C[C@@H]1CN([C@@H](C)CO)C(=O)c2cc(NC(=O)C3CCCCC3)ccc2O[C@@H]1CN(C)C(=O)Nc1ccc(C(F)(F)F)cc1 | -44
Fc1ccc(Nc2nc(SCc3ccccc3F)nc3ccccc23)cc1 | -56
O=C(O)C1Cc2ccccc2-c2ccccc2C1 | 20
Next section:
SMILES | Tgondii IFNg
Nc1ccnc(NCc2ccc3[nH]c4c(c3c2)CCCCCC4)n1 | -20
Cc1nc(N2CCCC2)nc(N2CCOCC(CN(C)C)C2)c1C (stereo not given) | 10
Cc1ccccc1S(=O)(=O)Nc1ccc2c(c1)C(=O)N(C)[C@@H]1CC[C@H](CC(=O)O)O[C@H]1CO2 | 10
CC(C)C1CN(CCC(=O)O)CCCN1Cc1ccc(F)cc1 (stereo not given) | -50
O=C(Nc1ccc(OC(F)(F)F)cc1)OCCc1csc2ccccc12 | -8
Cc1oncc1C(=O)N1CC[C@H]2C[C@H](c3ccncn3)O[C@H]2C1 | 46
O=C1NCCN(Cc2ccccc2)C12CCN(S(=O)(=O)c1ccc(F)cc1)CC2 | -10
O=C(Nc1cc(F)ccc1F)N[C@@H]1CC[C@@H](CCn2cc(C3CCCCC3)nn2)O[C@@H]1CO | -47
CO[C@@H]1CC[C@@H]2CCOc3ccc(C#N)cc3C(=O)N(C)C[C@H](c3ccccc3)CC(=O)N(C)C[C@@H]1O2 | -24
CNC(=O)CC1C(=O)NCCN1CCn1c(=O)oc2ccccc21 (stereo not given) | -10
CC(=O)N1CCS(=O)(=O)[C@H]2CCN(CC3CC3)CC[C@@H]21 | -1
CN1C[C@@H](NC(=O)C2CCCC2)C[C@H]1C(=O)NCCc1nc2ccccc2[nH]1 | 1
CC1(CNC(=O)CNS(=O)(=O)c2ccc3c(c2)OCCCO3)COC1 | -6
CCOC(=O)COc1ccc2c(=O)c(-c3ccccc3)coc2c1 | 12
CC(=O)N1C[C@@H]2[C@H](c3ccccc31)[C@H](CO)N2Cc1ccc(Cl)cc1 | 3
CC(C)Cc1noc(CN(C)c2nc(CCN)nc3ccccc23)n1 | -5
CCc1cc(CN(C)C(=O)Cn2cc(C(F)(F)F)ccc2=O)on1 | -2
CN(C)CCN1C2(CCN(Cc3nccs3)C2)c2ccccc2S1(=O)=O (stereo not given) | 0
CCN(CC)C(=O)C1Cn2ccnc2C2(CCN(Cc3nccs3)CC2)O1 (stereo not given) | -17
Cc1ccc(CN2CCC3(CC2)CC(Oc2ccccc2)CO3)s1 (stereo not given) | -41
COc1ccc2oc(=O)c(C(=O)O)cc2c1 | 2
Cc1nc(CC2CCN(c3nccc(CCC(F)(F)F)n3)CC2)no1 | -22
CC(=O)NCC(=O)N1CCC2(CC1)CN(c1cccnc1)C(=O)CO2 | 190
COc1cccc(CCNC(=O)CC2CCN(C(=O)c3oc(C)nc3C)CC2)c1 | 2
NC1(C(=O)O)CCN(Cc2cccn2-c2ccncc2)C1 (stereo not given) | -48
CN1CCOCC1c1nccc(NCc2ccco2)n1 (stereo not given) | 0
O=C(CN1CCOCC1)N[C@@H]1CC[C@@H](CCn2cc(C3CC3)nn2)O[C@H]1CO | -9
CC(C)C(=O)NCCc1csc(C2CCN(C(=O)Nc3cccc(F)c3)CC2)n1 | -57
CCCC#Cc1ccc([C@@H]2[C@H](CO)N3C(=O)CN(C(=O)Nc4cccc(F)c4)C[C@@H]23)cc1 | 21
COCC(=O)N1[C@@H](C#N)[C@@H](c2ccccc2C2=CCCC2)[C@@H]1CO | -37
O=c1[nH]cnc2c1sc1nnc(-c3ccccc3)c(-c3ccccc3)c12 | ?
CN(C)Cc1cn(CC[C@H]2CC[C@@H](NC(=O)Cc3cccnc3)[C@@H](CO)O2)nn1 | 61
Cc1cc(C(F)(F)F)nc(CCNC2CCC(=O)N(CC3CC3)CC2)n1 (stereo not given) | 9
Cc1cc2ccccc2nc1N1CCN(Cc2cnn3cccnc23)CC1 | -8
Cc1cc(C)c(NS(=O)(=O)c2ccc3[nH]c(=O)ccc3c2)c(C)c1 | i
O=C(NCc1cccnc1-n1ccnc1)c1cnc2ccccn12 | -5
CC(C)n1c(C(F)(F)F)nc2cc(C(=O)O)ccc21 | 19
Cn1nnc2c1C(COCC1CC1)CNC2 (stereo not given) | 8
Cc1noc(C)c1NC(=O)N(C)C[C@H]1Oc2ccc(NC(=O)Cc3cn(C)c4ccccc34)cc2CC(=O)N([C@@H](C)CO)C[C@H]1C | -3
CCN1C(=O)N(C2Cc3ccccc3C2)C(=O)C12CCN(Cc1cccc3ncccc13)CC2 | 9
Cc1nc(-c2ccccc2)sc1CCNC(=O)c1ccc(Cl)cc1 | i
Cc1ccc(CNCc2cccnc2)o1 | 7
COc1ccc(N2CC(C(=O)N3CCCN(c4ccccn4)CC3)CC2=O)cc1 (stereo not given) | -7
CC(NC(=O)c1ccc(Cl)cc1)c1nnc(SCC(=O)NC2CCCC2)n1C (stereo not given) | -26
Cc1occc1C(=O)Nc1ccc(C(=O)NC2(C)CCCCC2)cc1 | 11
CC(C)Cc1cc(C(=O)N(C)Cc2cnccn2)on1 | 2
COc1cc(-c2nc(CN3[C@@H]4CC[C@H]3CNC(=O)C4)c(C)o2)cc2c1OCO2 | -3
CSc1ccc2c(c1)CCN(Cc1cc3n(n1)CCNC3)C2 | 13
COc1ccc(NC(=O)CC2C(=O)N(c3ccc(F)cc3)C(=O)N2Cc2ccccn2)cc1 (stereo not given) | 9
CCOc1ccc(-c2nc(CN3CCN(Cc4cc(=O)oc5ccc(CC)cc45)CC3)c(C)o2)cc1 | -20
(listing goes on)
SMILES | Tgondii IFNg
CN1CCO[C@H]2CN(S(=O)(=O)c3cn(C)cn3)CC[C@@H]2C1 | -4
CC(C)Oc1ccc(-c2ccncn2)cc1 | -38
COc1cccc(S(=O)(=O)N2[C@@H]3CNC[C@H]2C3c2ccc(/C=C/c3ccccc3)cc2)c1 (stereo not given in full) | -24&-6
Cc1ccsc1CNC(=O)CC1NC(=O)c2ccccc21 (stereo not given) | -6
N#C[C@H]1[C@H](c2ccccc2-c2cccc(F)c2)[C@H](CO)N1C(=O)C1CC1 | 19
Cc1cc(C)c(C(=O)Sc2ccc(Cl)cc2)c(CC(C)(C)C(=O)O)c1 | -68
CCOC1COC2(CCN(C(=O)c3cccn3C)CC2)C1 (stereo not given) | -43
CCn1cc(C(=O)N2CCc3c(nc(-c4ccccc4)nc3N(C)C)C2)cn1 | -9
CCc1cc(CN2CCCCC2c2nc3ccc(F)cc3[nH]2)on1 (stereo not given) | 19
CC(C)C(=O)Nc1ccc2c(c1)C(=O)N(C)[C@H]1CC[C@@H](CC(=O)NCCc3ccccc3)O[C@H]1CO2 | -29
COc1ccc(CCNC(=O)C2C3C=CC4(CN(C5CCCC5)C(=O)C24)O3)cc1C (stereo not given) | -2
CCN(CC)c1ncnc2c1cnn2CC(=O)Nc1ccc(F)cc1 | -19
Cc1csc(Nc2cccc(C(=O)O)c2)n1 | 166
CCOc1ccccc1NC(=O)c1nnn(Cc2nc(-c3cccc(OC)c3OC)oc2C)c1C | -79*
CN(C)CC1(O)CCN(C(=O)COc2ccc3c(c2)OCO3)C1 (stereo not given) | 1
O=C(Cn1ncc2c(N3CCCCCC3)ncnc21)NCc1ccc2c(c1)OCO2 | -97*
CCn1c(-c2cc(NC(=O)c3cccnc3)n[nH]2)cc2ccc(OC)cc21 | -30

Screening results from PubChem.
